Assay outcomes as filed in PubChem BioAssay.
UCH37 inh – human UCH37 deubiquitinating enzyme inhibition. inhibition, % (concentration not given with the values). hit rate 0.33% among 330,000. Q9Y5K5. purified proteasome/UCH37, Ub-AMC cleavage fluorescence;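 active = mean of two replicates above 20%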;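 note: 0% = compound-free wells with enzyme and 100% = wells lacking proteasome; stock transfer was 100 nL into about 20 µL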
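Reagent: Ub-AMC substrate; assay system: Proteasome-associated human UCH37 deubiquitinase; controls: no-proteasome and no-compound wells; read-out: % inhibition of Ub-AMC cleavage fluorescence; timing: 30 min preincubation with enzyme, 25 min cleavage at room temperature; signal: AMC fluorescence from Ub-AMC cleavage, excitation 355 nm, emission 460 nm; buffer or medium: Tris-HCl pH 7.4 plus ovalbumin, ATP-MgCl2, DTT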
Beta2AR agonist – human beta-2 adrenergic receptor agonism by FAP | AID 504454 | hit rate 0.43% among 340,000 | response, % (concentration not given with the values) | Am2.2-beta2AR cells, FAP receptor internalization, flow cytometry; reference of the scale not given here;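 active = response above a set limit, near 3 SD of response in nonfluorescent compounds, cut at about 42% in these data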;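 note: stock transfer was 100 nL into about 11 µL; a reference agonist was the positive control; negative values mostly stem from fluorescent compounds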
RanGTP-Imp inh – disruptors of Ran-importin-beta complex formation – biochemical, FRET, CFP-Ran, YFP-importin-beta, homogeneous, primary screen; cell-free CFP-Ran/YFP-importin-beta FRET ratio; inhibition, % (test concentration not listed); hit rate 1.1% among 300,000;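 active = most replicates above 15%; inconclusive = exactly half above 15%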;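 note: 0% = DMSO wells and 100% = Ran loaded with GDP instead of GTP; wells of about 40 µL received 100 nL stock; the first replicate is given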
T cruzi inh – T. cruzi replication inhibition; T. cruzi beta-gal in NIH3T3, luminescence, 90 h; inhibition, % (no concentration beside the values); hit rate 1.4% among 300,000;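 active = mean inhibition across valid replicates above about 55%, limit read from the data; inconclusive = mean below that limit but half or more replicates reach it; inactive = mean below it, under half of replicates reach it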;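 note: signal also drops with host cell toxicity which is not excluded here; 0% = plate median of DMSO wells and 100% = zero luminescence signal; higher percent means less beta-gal luminescence so fewer parasites; stock transfer was 50 nL into about 50 µL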
Beta cell apopt – beta cell apoptosis inhibition | INS-1E cytokine-induced death, ATP luminescence, 48 h; percent of positive-control rescue, neutral wells zero | protection from apoptosis, % (concentration not given with the values) | hit rate 0.8% among 300,000 | AID 435005;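 active = all replicates at 75% or more, or half of them and the mean; inconclusive = half reach 75% but not the mean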;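 note: 0% = cytokine-treated negative control wells and 100% = positive control rescue; higher means more ATP so stronger rescue from cytokine killing; wells of about 40 µL received 100 nL stock; the first replicate is given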
LANA-H2A inh – blocks KSHV LANA binding to histone H2A/H2B. Q9QR71. cell-free LANA-H2A/H2B peptide, fluorescence polarization. inhibition, % (concentration not given with the values). hit rate 0.6% among 320,000; in the data active = inhibition mostly above about 10%, no sharp cut-off; inactive = mostly below about 6.7%;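 note: stock transfer was 7.5 nL into about 10 µL; 0% = median of vehicle wells and 100% = median of positive control wells; one replicate is shown; the record names a cut of 25% in any replicate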
Target sequence (Q9QR71 whole entry, looked up): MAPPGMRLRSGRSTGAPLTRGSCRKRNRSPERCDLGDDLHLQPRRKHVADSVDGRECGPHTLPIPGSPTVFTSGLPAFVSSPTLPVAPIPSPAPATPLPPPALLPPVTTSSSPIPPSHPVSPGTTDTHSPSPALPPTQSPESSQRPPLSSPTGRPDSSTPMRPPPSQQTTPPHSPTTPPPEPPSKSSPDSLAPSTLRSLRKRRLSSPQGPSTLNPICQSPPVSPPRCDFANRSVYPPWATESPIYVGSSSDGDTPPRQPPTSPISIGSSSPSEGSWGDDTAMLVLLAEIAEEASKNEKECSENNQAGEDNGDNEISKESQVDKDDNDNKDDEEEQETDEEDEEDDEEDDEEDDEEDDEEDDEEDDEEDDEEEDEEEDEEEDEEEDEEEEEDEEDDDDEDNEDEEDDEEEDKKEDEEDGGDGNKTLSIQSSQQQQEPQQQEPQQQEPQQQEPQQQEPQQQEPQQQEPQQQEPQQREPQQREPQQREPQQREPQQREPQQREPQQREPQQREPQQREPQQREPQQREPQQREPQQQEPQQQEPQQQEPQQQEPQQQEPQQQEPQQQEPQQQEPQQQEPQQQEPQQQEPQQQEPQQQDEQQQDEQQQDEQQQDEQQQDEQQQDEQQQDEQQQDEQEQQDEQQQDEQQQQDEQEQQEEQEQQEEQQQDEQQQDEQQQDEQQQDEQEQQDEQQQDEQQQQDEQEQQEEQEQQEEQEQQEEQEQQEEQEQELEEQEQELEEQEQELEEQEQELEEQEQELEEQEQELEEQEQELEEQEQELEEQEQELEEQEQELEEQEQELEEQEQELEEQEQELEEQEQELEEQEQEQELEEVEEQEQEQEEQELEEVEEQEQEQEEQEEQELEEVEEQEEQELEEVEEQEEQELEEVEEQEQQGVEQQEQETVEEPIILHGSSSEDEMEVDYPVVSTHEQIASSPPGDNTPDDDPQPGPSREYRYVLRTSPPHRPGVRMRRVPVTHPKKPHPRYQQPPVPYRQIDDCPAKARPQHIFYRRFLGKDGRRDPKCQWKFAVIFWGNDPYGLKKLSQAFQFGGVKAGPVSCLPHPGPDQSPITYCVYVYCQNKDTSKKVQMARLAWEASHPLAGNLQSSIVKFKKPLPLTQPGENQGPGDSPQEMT
Calb FLC – C. albicans growth modulation with fluconazole; AID 1979; growth inhibition, % (test concentration not listed); hit rate 0.57% among 300,000; C. albicans CaCi-2 (fluconazole-resistant clinical isolate) + fluconazole, Alamar Blue growth, 48 h;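 active = most replicates above 75%; inconclusive = exactly half above 75%; inactive = most below 75%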;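 note: all wells also contain fluconazole at 8 µg/ml as a sub-toxic cotreatment; 0% = median of DMSO wells and 100% = median of geldanamycin control wells; wells of about 8 µL received 7.5 nL stock; the first replicate is given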
A1 inh – inhibitors of the anti-apoptotic protein A1, read as caspase activation; caspase activation, % (test concentration not listed); hit rate 0.066% among 330,000; MEF A1-2A-BIM cells, Caspase-Glo 3/7 luminescence, 3 h; percent of clofoctol response, vehicle zero;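 active = over half of replicate activation scores above 10%, or exactly half above 10 with the replicate mean above 10; inconclusive = replicate mean below 10 yet half the replicates above 10; inactive = over half of replicates below 10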;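 note: wells of about 30 µL received 50 nL stock; many hits fall short of the cut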
An asterisk follows results filed as active; ? = inconclusive; · = no result given.

SMILES	UCH37 inh	Beta2AR agonist	RanGTP-Imp inh	T cruzi inh	Beta cell apopt	LANA-H2A inh	Calb FLC	A1 inh
COc1ccc(NC(=O)c2ccc(COc3ccccc3)o2)c(OC)c1	0.6	-9.0	0.4	-1.6	-1.7	-3.1	14.9	1.4
O=C(c1cnn(-c2ccccc2)c1)c1cc(Br)ccc1O	4.1	4.1	·	·	-3.2	2.8	·	-1.7
Cc1onc(-c2c(F)cccc2Cl)c1C(O)c1ccc(F)cc1 (stereo not given)	6.6	-6.3	1.4	-14.0	-5.6	3.7	-5.0	1.6
O=[N+]([O-])c1cc(CN2CCN(c3ccccc3)CC2)c(O)c2ncccc12	11.2	43.7*	?	57.8*	95.0*	-3.6	100.5*	0.0
CCOc1ccc(C(=O)NC2=NCCS2)cc1	1.5	·	1.0	-23.1	-1.6	4.2	-8.2	-0.7
CCc1ccc(CN(C)C(=O)c2cc(COc3cc(C)c(Cl)c(C)c3)on2)nc1	3.7	7.3	-4.9	8.9	-13.9	0.7	0.7	-1.2
Clc1nc(Nc2ccc(N3CCOCC3)cc2)c2ccccc2n1	4.6	-5.0	-1.2	-20.9	·	-2.4	8.2	0.4
CCOc1cc(N2CCOCC2)c(OCC)cc1NC(=O)COC(=O)CCOc1ccc(C)cc1	·	5.8	-0.9	-3.2	-27.5	5.6	8.7	-0.5
COC(=O)c1ccc(CSc2nnc(NC(=O)C3CCCO3)s2)cc1 (stereo not given)	0.5	11.3	-5.3	-10.4	-7.4	0.4	-0.9	0.6
CCOc1cc(C(=O)NC2CCCCCCC2)cc(OCC)c1OCC	4.2	6.4	-0.7	10.2	1.3	-5.5	-1.6	-0.3
C(=N\Nc1nc2ccccc2[nH]1)/c1ccc2c(c1)OCO2	·	-2.7	-1.4	28.8	·	·	-6.8	·
O=C1CCC(=O)N1CCC(c1ccc(F)cc1)c1ccco1 (stereo not given)	1.6	10.5	-1.6	-1.7	·	6.5	-27.1	0.4
CCCCCCc1nnc(NC(=O)c2ccco2)s1	2.6	-8.6	-4.8	-11.2	-2.9	-5.3	?	-2.6
C/C(=C\C(=O)c1ccccc1)Nc1ccc(N2CCOCC2)cc1	0.6	0.0	-3.3	64.2*	6.4	4.2	-5.7	-4.5
Cc1ccc(OC(C)C(=O)Nc2ccccc2C(=O)N2CCOCC2)cc1 (stereo not given)	0.8	1.2	-1.7	3.3	-5.3	0.8	1.0	-1.3
CCOC(=O)C1CCN(Cc2ccc(F)cc2)CC1	3.0	11.5	·	·	4.8	-3.2	·	0.1
CC(=O)OC(C(=O)NC1CCCCC1)c1ccccc1 (stereo not given)	2.0	7.4	-1.7	2.4	-7.3	4.8	-7.2	?
CCOc1ccc(CCNc2nc3ccc(C)cc3n3cnnc23)cc1OCC	-8.4	-19.5	1.4	13.6	0.4	2.2	16.5	-1.0
O=C(Nc1ccccc1)c1ccccc1CCc1ccccc1	6.0	31.8	3.9	15.2	·	22.6*	-4.2	1.0
O=C(CCN1C(=O)/C(=C/c2ccc(Cl)cc2)SC1=S)NC1C=CS(=O)(=O)C1 (stereo not given)	7.4	10.0	0.0	-10.3	-2.4	13.4	4.4	0.5
C/C(=N/OCO/N=C(\C)c1ccccc1)c1ccccc1	·	-1.8	-5.8	14.9	0.6	0.8	8.5	-0.4
N/C(=N\OC(=O)Cc1ccc([N+](=O)[O-])cc1)c1cccc(Br)c1	·	-5.4	-3.4	26.8	6.9	-2.4	5.3	-5.7
Cc1ccc(CNC(=O)CCNC(=O)c2ccc([N+](=O)[O-])cc2)cc1	4.1	-1.8	·	·	-0.2	4.1	·	0.3
O=C(Oc1ccccc1C(=S)N1CCOCC1)c1ccc([N+](=O)[O-])cc1[N+](=O)[O-]	4.1	5.3	1.0	-5.7	0.4	-1.4	-2.8	0.4
COc1ccc(S(=O)(=O)N2CCC(N3CCCC3)CC2)cc1	1.6	4.3	2.5	21.6	-8.5	-1.4	6.8	0.0

Continuation.
SMILES	UCH37 inh	Beta2AR agonist	RanGTP-Imp inh	T cruzi inh	Beta cell apopt	LANA-H2A inh	Calb FLC	A1 inh
CCN(CC)S(=O)(=O)c1ccc(C(=O)NCCSc2c[nH]c3ccccc23)cc1	2.2	2.3	0.8	42.9	-6.3	-3.2	-4.7	-0.2
COc1cccc2cc(C(=O)N(C)C)c(=O)oc12	-0.3	1.9	?	-8.2	-1.1	3.2	-13.3	0.8
Cc1ccc(S(=O)(=O)N=Nc2c(O)[nH]c3ccccc23)cc1C	5.7	3.2	7.1	-22.0	-7.3	4.3	-8.6	-1.4
CCn1c(SC)nc2c(c1=O)SC(C)C2 (stereo not given)	9.4	-10.5	?	-12.2	-0.1	4.2	-1.6	-0.2
CCCc1nc2ccccc2c(C(=O)OCC(=O)NCc2ccc3c(c2)OCO3)c1CC	1.1	5.2	0.4	40.8	-2.3	0.3	-24.7	-1.7
O=C(c1ccc(-c2cccc(C(F)(F)F)c2)o1)N1CCCCCCC1	4.7	-6.5	0.3	14.0	·	7.0	6.0	0.1
COc1cnc(-c2ccccc2)nc1Oc1cccc(C)c1C	1.7	0.1	1.3	23.6	-15.2	-1.9	-1.2	0.4
O=C(NC(=S)NNC(=O)c1ccccc1[N+](=O)[O-])c1ccccc1	4.4	3.3	-0.2	-26.8	-1.0	7.4	-3.4	0.5
CCOc1cc(C2CC(=O)Nc3cc(C)c(C)cc32)ccc1O (stereo not given)	0.7	-1.1	-1.1	0.8	1.1	2.3	28.2	0.0
Cc1ccc(CSc2ncnc3onc(C)c23)cc1	7.7	2.7	?	4.7	6.8	1.0	-14.5	0.5
CCCCCCCNC(=O)C1(CC2CC(c3ccc(Cl)cc3)=NO2)CCN(C(=O)OC(C)(C)C)CC1 (stereo not given)	2.6	2.4	3.1	25.6	-3.4	-0.8	12.1	0.2
O=C(COC(=O)c1cncc(Br)c1)NCc1ccc2c(c1)OCO2	4.6	1.4	0.6	-1.5	-0.3	-2.5	-22.9	0.0
CC(C)(C)c1ccc(OCCCC(=O)Nc2ccc(S(N)(=O)=O)cc2)cc1	3.1	15.4	?	2.5	9.8	0.2	0.3	-0.1
O=C(Nc1cc(=O)[nH]c2ncnn12)c1ccccc1Cl	0.8	2.6	-0.2	-5.9	-5.9	-5.2	16.5	-2.1
COc1ccc(NC(=O)Cn2c3ccc(OC)cc3c3nc4n(c(=O)c32)CCS4)cc1	-396.6	-3.5	2.1	-2.8	9.8	4.7	4.7	0.3
CCOCCCNc1nc2ccccc2[nH]1	0.5	-8.9	4.6	24.5	-1.5	0.3	·	0.0
COc1ccc(O)c(CN2CCCC(N3CCc4ccccc4C3)C2)c1 (stereo not given)	4.0	-0.9	8.3	13.0	·	-1.5	5.2	1.3
Cc1ccc(-n2cc(-c3ccccc3)c3c(NN4CCOCC4)ncnc32)cc1	1.6	-6.6	-2.5	5.4	8.4	5.3	1.4	-0.8
O=C(COC(=O)c1cc(Cl)ccc1O)Nc1ccc2c(c1)OCCO2	0.1	-6.0	·	·	-0.9	-6.7	·	-0.9
COc1ccc(C)cc1S(=O)(=O)NC1CCCCC1C (stereo not given)	0.5	6.3	1.6	6.7	-1.0	2.3	-18.2	0.0
CCOC(=O)N1CCN(CC(O)COc2c(OC)cccc2OC)CC1 (stereo not given)	2.1	5.4	-1.2	-13.0	-7.2	-5.6	3.0	1.6
CC(=O)c1cccc(S(=O)(=O)NCCC(=O)Nc2ccc(S(N)(=O)=O)cc2)c1	0.1	4.4	-0.2	-10.6	·	1.9	0.9	2.3
CC(C)Cc1cc(C(=O)N(C)C2CCCN(Cc3ccccc3F)C2)n(C)n1 (stereo not given)	1.2	8.4	2.2	9.1	3.1	-0.6	-2.0	0.6
O=C(c1cc(NC(=O)C23CC4CC(CC(C4)C2)C3)cc(NC(=O)C23CC4CC(CC(C4)C2)C3)c1)N1CCCCC1	1.1	·	3.3	54.0	·	-2.5	44.4	0.4
COc1ccc2nc(NC(=O)Cc3ccc(OC)c(S(=O)(=O)N4CCOCC4)c3)sc2c1	0.2	5.3	5.0	-18.9	-5.2	-0.1	0.3	-1.0

The list goes on.
SMILES	UCH37 inh	Beta2AR agonist	RanGTP-Imp inh	T cruzi inh	Beta cell apopt	LANA-H2A inh	Calb FLC	A1 inh
Clc1ccc(Oc2ccccc2)c2ncccc12	-0.6	-17.9	-4.2	-1.0	-3.5	-0.4	13.2	0.1
CCN(CC)c1ccc(C(=O)OCC(=O)Nc2sccc2C#N)cc1	-3.7	8.6	4.9	4.8	·	-3.0	-5.1	-2.5
O=C(Nc1cccc(C(=O)O)c1)/C(=C\c1ccc2c(c1)OCO2)NC(=O)c1ccccc1Cl	10.2	0.5	6.0	-13.9	1.6	-5.9	6.0	0.5
O=C(NC1CCN(Cc2ccccc2)CC1)c1ccc(S(=O)(=O)NCc2ccco2)cc1	-0.5	6.0	-0.8	73.0*	8.2	1.8	-0.7	-0.7
Cc1ccccc1NC(=O)c1cc(S(=O)(=O)N2CCCCC2)cs1	0.6	-1.7	4.3	-2.9	-3.2	2.3	13.1	-0.9
CC(Oc1ccccc1)C(=O)N1CCN(C(=O)C(C)Oc2ccccc2)CC1 (stereo not given)	1.2	0.9	-1.1	-16.9	-5.4	-7.0	?	0.7
Cn1nc(C(F)(F)F)c(-c2cccc(C(F)(F)F)c2)c1NC(=O)c1cccnc1	2.8	-3.8	3.6	-2.8	-0.2	-6.7	-1.5	1.0
Cc1cc2c(cc1C)NC(CC(=O)NCc1ccccc1)C(=O)N2 (stereo not given)	-111.3	0.7	1.5	-6.7	-3.3	-2.5	?	-0.5
